Cruzain Triton – qHTS Assay for Promiscuous and Specific Inhibitors of Cruzain (with detergent). Cruzipain (Trypanosoma cruzi), P25779. 200,000 tested, 0.43% active. Potency, µM, for inactives: max response, negative = inhibition, hits mostly inhibitors. purified cruzain, Z-FR-AMC fluorescence, 0.01% Triton;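 also: plate controls were neutral wells for no effect and buffer without enzyme for full effect; nearly all actives have a fitted effect of over 40% in size; top concentration of the series not given in the record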
Target sequence (P25779 123-467 limits assumed): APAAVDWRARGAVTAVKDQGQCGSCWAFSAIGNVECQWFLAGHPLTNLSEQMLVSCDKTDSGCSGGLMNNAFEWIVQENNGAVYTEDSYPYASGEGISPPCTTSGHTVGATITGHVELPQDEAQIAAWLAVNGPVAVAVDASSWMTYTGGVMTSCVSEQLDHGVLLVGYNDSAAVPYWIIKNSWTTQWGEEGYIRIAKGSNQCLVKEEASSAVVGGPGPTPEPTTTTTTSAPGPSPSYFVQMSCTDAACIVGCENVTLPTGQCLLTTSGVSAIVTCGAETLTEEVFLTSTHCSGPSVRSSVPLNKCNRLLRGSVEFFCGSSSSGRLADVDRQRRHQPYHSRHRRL
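Detergent-containing arm of a paired screen for aggregation-based inhibition: 0.01% Triton X-100 present. Cruzain at 1.5 nM cleaved 2 uM Z-FR-AMC at pH 5.5 with 5 mM DTT; AMC fluorescence gain over 60 s measured activity.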
Cruzain noTriton – qHTS Assay for Promiscuous and Specific Inhibitors of Cruzain (without detergent) | Cruzipain (Trypanosoma cruzi), P25779 | purified cruzain, Z-FR-AMC fluorescence, no detergent | Potency, µM, for the others: max response, negative = inhibition, usual class: inhibitors | 200,000 tested, 2.3% active;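 also: plate controls were enzyme without inhibitor for no effect and buffer without enzyme for full effect; nearly all actives have a fitted effect of over 40% in size; top concentration of the series not given in the record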
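Detergent-free condition (0.00005% Triton X-100) in acetate buffer pH 5.5 with DTT. 1.5 nM enzyme and compound were pre-mixed 15 min, then 2 uM Z-FR-AMC substrate added; reaction progress from fluorescence change between first and third reads (60 s).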
The depositor's hits bear a star; ? = inconclusive; & = joins results of further samples. Calls follow the shape of the dose curve; as a rule, active = well fitted curve in the direction sought with a large enough effect; inconclusive = small, poorly fitted or top-dose-only effect, or another doubt; inactive = no such curve, though single readings can be large; an effect the other way counts as inactive or inconclusive. Potency is read from the fitted curve at half-maximal effect. A portion of the library; the hit share may differ from the screen's.

SMILES	Cruzain Triton	Cruzain noTriton
Nc1cc(Cl)ccc1O	5.2%	3.6%
CCCCC/C=C\C/C=C\C/C=C\C=C\C1CCCC(=O)O1 (stereo not drawn)	1.4%	-0.6%
C[C@@H](C(=O)Cc1ccc2ccccc2c1)[C@@H]1C[C@@]1(C)[C@@H](NP(=O)(c1ccccc1)c1ccccc1)c1ccccc1	-4.0%	?
O=C1C(c2[nH]c3ccc(S(=O)(=O)O)cc3c2O)=Nc2ccc(S(=O)(=O)O)cc21	1.3%	-3.3%
COC(=O)[C@@]1(Cc2ccccc2)[C@H]2c3cc(C(=O)N4CCCC4)n(Cc4ccccc4)c3C[C@H]2CN1C(=O)c1ccccc1	7.0%	?
Nc1ccn([C@@H]2O[C@H](CO)[C@@H](OP(=O)(O)O)[C@H]2O)c(=O)n1	7.5%	0.5%
CC1(C)S[C@@H]2[C@H](N)C(=O)N2C1C(=O)O (stereo partly drawn)	1.3%	-4.3%
CN(N=O)C(=O)N[C@H]1[C@@H](O)[C@H](O)[C@H](CO)O[C@@H]1O	-0.9%	-8.0%
CCC(=O)C(C(=O)OC)[C@H](CCc1ccccc1)NC(=O)OC (stereo partly drawn)	4.2%	-6.1%
CCN[C@@H]1CN(CCCOC)S(=O)(=O)c2sc(S(N)(=O)=O)cc21	-5.0%	8.1%
C=C[C@]12CN(C)[C@H]3C1[C@@]1(C(=O)Nc4ccccc41)[C@H]1C[C@H]2[C@H]3CO1	-3.5%	-7.0%
C=C(C)C(=O)c1ccc(OC)cc1	-1.0%	6.3%
CCOCCOCC	6.6%	4.2%
CCCn1c(C)nc2c(NCCN(C(C)C)C(C)C)nc(C)nc21	7.6%	8.0%
CC(=O)[C@H]1CC[C@@H]2[C@H]3CC=C4C[C@@H](O)CC[C@]4(C)[C@H]3CC[C@]12C	-2.8%	3.9%
O=C(Nc1ccc(Br)cc1)c1cc(Br)cc(Br)c1O	-24.2%	-21.1%
COC1/C=C/OC2(C)Oc3c(C)c(O)c4c(O)c(c(/C=N/N5CCN(C)CC5)c(O)c4c3C2=O)NC(=O)/C(C)=C/C=C/C(C)C(O)C(C)C(O)C(C)C(OC(C)=O)C1C (stereo not drawn)	-7.5%	?
ClC(Cl)(Cl)C(Cl)(Cl)Cl	0.6%	-3.2%
C[C@@H](C(=O)Nc1ccc2ccccc2c1)[C@@H]1C[C@@]1(C)[C@@H](NS(=O)(=O)c1ccc2ccccc2c1)c1ccccc1	3.6%	7.94µM*
CCC(=O)O[C@H]1C(O[C@@H]2C(C)[C@H](O[C@H]3C[C@@](C)(OC)C(O)C(C)O3)C(C)C(=O)OC(CC)[C@@](C)(O)C(O)[C@H](C)C(=O)C(C)C[C@]2(C)O)OC(C)CC1N(C)C (stereo partly drawn)	?	?
Clc1ccc(C(c2ccccc2Cl)C(Cl)(Cl)Cl)cc1 (stereo not drawn)	6.6%	-27.5%
CC(=O)OCc1ccc2c(c1)OCO2	3.1%	-7.3%
C=C(Cl)Cl	8.3%	-0.9%
O[C@@H]([C@H](O)[C@@H](O)CBr)[C@@H](O)CBr	2.4%	-3.5%
CCCCC/C=C\C/C=C\C/C=C\CCCCC(=O)NC(C)C(=O)O (stereo not drawn)	-1.6%	4.6%
COC(=O)[C@@H]1C[C@H](OC(C)=O)C(=O)[C@H]2[C@@]1(C)CC[C@H]1C(=O)O[C@H](c3ccoc3)C[C@]21C	5.2%	3.6%
CNC1C(OC2C(O[C@@H]3C(O)C(O)[C@@H](N=C(N)N)C(O)C3N=C(N)N)OC(C)[C@@]2(O)CO)OC(CO)C(O)C1O (stereo partly drawn)	3.4%	-3.1%
CC(=O)N1[C@H](Cc2ccccc2)C=C[C@]1(C)C(=O)O	-1.2%	-7.0%
Cc1ccc(/C=C/C2=C[C@]3(C)C[C@]2(C)[C@H](c2ccc(C)cc2)CC3=O)cc1	1.4%	-4.3%
OB(O)c1ccc(Cl)s1	1.2%	-6.1%
CCC(=O)OCC(=O)[C@@]1(OC(=O)CC)[C@@H](C)C[C@H]2[C@@H]3CCC4=CC(=O)C=C[C@]4(C)[C@@]3(F)[C@@H](O)C[C@@]21C	-1.5%	?
CN(C)C(=O)[C@H]1C[C@@H]1[C@H](NC(=O)OCc1ccccc1)c1ccccc1	2.8%	-3.5%
Cc1cccc([C@H]2[C@@H]3C=CCC[C@@]3(C)C(=O)N2Cc2ccccc2)c1	3.7%	4.5%
CNC1=CN=C(c2ccccc2)c2cc(Cl)ccc2N1	-0.2%	-5.0%
COCCN(CCOC)c1nc(C)nc2c1nc(-c1ccccc1)n2CCN1CCCC1	0.1%	-4.1%
CCCCCC/C=C1\CC(C(=O)OCC)Oc2ccccc21 (stereo not drawn) (tested in a mixture with another compound)	-2.0%	4.1%
CC(C)[C@@H](CC(=O)N[C@@H]1CCCC[C@H]1C(=O)N[C@H](CC(=O)N[C@@H](CCC(=O)O)CC(=O)O)Cc1ccccc1)NC(=O)C[C@H](Cc1ccccc1)NC(=O)[C@@H]1CNCC[C@H]1N	-3.5%	1.6%
CCCn1c(C)nc2c(NCCN3CCOCC3)nc(C)nc21	2.8%	-4.8%
COc1ccc(/C=C/c2cc(OC)cc(=O)o2)cc1	-2.3%&0.3%	5.9%&-0.6%
C[C@@H](CO)NC(=O)[C@@H]1C=C2c3cccc4[nH]cc(c34)C[C@H]2N(C)C1	-8.1%	?

Next part; it opens with the 4 that closed the last part.
SMILES	Cruzain Triton	Cruzain noTriton
CC(C)[C@@H](CC(=O)N[C@@H]1CCCC[C@H]1C(=O)N[C@H](CC(=O)N[C@@H](CCC(=O)O)CC(=O)O)Cc1ccccc1)NC(=O)C[C@H](Cc1ccccc1)NC(=O)[C@@H]1CNCC[C@H]1N	-3.5%	1.6%
CCCn1c(C)nc2c(NCCN3CCOCC3)nc(C)nc21	2.8%	-4.8%
COc1ccc(/C=C/c2cc(OC)cc(=O)o2)cc1	-2.3%&0.3%	5.9%&-0.6%
C[C@@H](CO)NC(=O)[C@@H]1C=C2c3cccc4[nH]cc(c34)C[C@H]2N(C)C1	-8.1%	?
CC(C)C[C@@H](CC(=O)N[C@@H](CCCN)CC(=O)N[C@@H]1CCCC[C@H]1C(=O)N[C@H](CC(=O)N[C@@H](CCC(=O)O)CC(=O)O)Cc1c[nH]c2ccccc12)NC(=O)[C@@H]1CNCC[C@H]1N	-3.7%	2.6%
Cl/C=C/Cl	2.5%	-6.3%
CC(C)C=O	-2.7%	-2.9%
CC(C)Cn1nnnc1S(=O)(=O)CC#N	4.7%	-8.0%
C=C1C[C@@]23C[C@]1(O)CC[C@@H]2[C@]12C=C[C@@H](O)[C@](C)(C(=O)O1)[C@H]2[C@H]3C(=O)O	0.0%	-16.4%
CO[C@@H]1C=CO[C@]2(C)Oc3c(C)c(O)c4c(O)c(c(C=NN5CCN(C)CC5)c(O)c4c3C2=O)NC(=O)C(C)=CC=C[C@H](C)[C@H](O)[C@H](C)[C@H](O)[C@H](C)[C@H](OC(C)=O)[C@H]1C	-1.6%	?
O=C(/C=C/c1ccc(O)c(O)c1)O[C@@H]1C[C@@](O)(C(=O)O)C[C@H](O)[C@@H]1O	-7.9%	-0.3%
CC(=O)Oc1c(C)cc(OCC(O)CNC(C)C)c(C)c1C (stereo not drawn)	-0.6%	-10.9%
O=C1OC(O)C(C(Cl)Cl)=C1Cl (stereo not drawn)	-14.0%	-16.6%
COC(=O)[C@@]1(Cc2ccc(OC)cc2)[C@H]2c3cc(C(=O)N(C)C)n(CCF)c3C[C@H]2CN1C(=O)c1ccccc1	0.8%	?
CO[C@]1(NC(=O)[C@H](C(=O)O)c2ccc(O)cc2)C(=O)N2C(C(=O)O)=C(CSc3nnnn3C)CO[C@H]21	-16.8%	-29.7%
CCCCC(=O)Cl	1.6%	-6.2%
CCCn1c(-c2ccc(F)cc2)nc2c(NC(C)CCCN(CC)CC)nc(C)nc21 (stereo not drawn)	-5.3%	-1.6%
COC(=O)[C@@]1(Cc2ccc(OC)cc2)[C@H]2c3cc(C(=O)N(C)C)n(CCO)c3C[C@H]2CN1C(=O)c1ccccc1	0.1%	?
CCCCCC#CC[C@@H](O)/C=C/C=C/C=C\[C@@H](O)CCCC(=O)O	-2.2%	-4.6%
COC(=O)CNC(=O)[C@@]1(C)C=C[C@@H](Cc2ccccc2)N1C(C)=O	3.1%	8.0%
COc1ccc2c(c1OC)C(=O)O[C@@H]2C1c2cc3c(cc2CCN1C)OCO3 (stereo partly drawn)	-0.1%	7.5%
CN[C@H]1[C@@H](O[C@@H]2[C@H](O[C@@H]3[C@@H](O)[C@@H](O)[C@@H](N=C(N)N)[C@@H](O)[C@@H]3N=C(N)N)O[C@H](C)[C@@]2(O)C=O)O[C@@H](CO)[C@@H](O)[C@H]1O	4.0%	-4.7%
O=C(O)CC(C(=O)O)C(CC(=O)O)C(=O)O (stereo not drawn)	3.1%	-8.4%
Nc1cccc(S(=O)(=O)O)c1	-1.5%	-1.9%
O=C(NCc1ccc2c(c1)OCO2)O[C@@H]1C(=O)c2cc(Br)ccc2O[C@H]1c1ccc2c(c1)OCO2	-3.9%	-1.2%
COC(=O)CCCC1=CC2=CC(=O)C(C)(OC(=O)c3cccs3)C(=O)C2=CO1 (stereo not drawn)	-19.2%	-5.6%
CCC=O	1.4%	3.0%
CC1(C)CC[C@]2(C(=O)O)CC[C@]3(C)C(=CCC4[C@@]5(C)CC[C@H](O)C(C)(C)C5[C@H](O)C[C@]43C)C2C1 (stereo partly drawn)	0.8%	?
Nc1ccc(Oc2ccc(N)cc2)cc1	0.7%	-12.6%
CC[C@H]1C(c2cccc(Cl)c2)=NN(c2ccccc2)[C@@H]1CO	1.4%	-11.2%
COC(=O)C1(C(=O)OC)C[C@H]2CON=C2[C@H]1c1ccccc1	4.3%&2.7%	1.0%&3.3%
COC(=O)c1ccc(C(NC(=O)OCc2ccccc2)/C(F)=C/[C@@H](C)C(=O)NCCO)cc1 (stereo partly drawn)	1.8%	?
CCCn1c(C)nc2c(NC(C)CN(C)C)nc(C)nc21 (stereo not drawn)	-2.3%	-1.6%
CC(=O)OCC(N)C(=O)c1ccccc1 (stereo not drawn)	5.2%	-1.6%
CCCC[C@@H]1C[C@H]1C(NC(=O)c1ccco1)c1ccc(-c2ccccc2)cc1 (stereo partly drawn)	-6.5%	-15.4%
CCCC[C@@H]1C[C@H]1C(NC(=O)c1ccco1)c1ccc(C(=O)OC)cc1 (stereo partly drawn)	-19.7%	15.9%
C=C(Cl)CCl	-1.6%	4.4%
Cc1cc2oc(=O)cc(-c3ccccc3)c2c(C)c1-c1sccc1C=O	0.6%	?
CCN(CC)CCn1c(-c2ccccc2)nc2c(N3CCOCC3)nc(C)nc21	4.5%	-1.0%
COC(=O)N1CC=CC1(C)C(=O)O (stereo not drawn)	-0.4%	-7.1%
CCCn1c(C)nc2c(NCCCN3CCCCC3C)nc(C)nc21 (stereo not drawn)	4.2%	-9.4%
Cc1ccc(CO)cc1	1.6%	-5.8%
N[C@H](C(=O)N[C@@H]1C(=O)N2C(C(=O)O)=C(Cl)CS[C@@H]12)c1ccccc1	-6.1%&-2.3%	6.3%&-3.4%
CCC/C=C(\CCC)C(NS(C)(=O)=O)c1ccccc1 (stereo not drawn)	-3.4%	-0.6%
O=C(CCl)c1ccc(Cl)cc1Cl	0.4%	2.9%
CSCCC=O	-0.4%	-8.2%
CCCCCCCCCCCCCCC1CO1 (stereo not drawn)	4.2%	11.3%
C=C1CCC2C(C)(CO)C(O)CCC2(C)C1C/C=C1\C(=O)OCC1O (stereo not drawn)	0.1%	-2.1%
CCCCNc1nc(C)nc2c1nc(-c1ccccc1)n2CCCN(CC)CC	4.5%	0.8%
C=C[C@H]1CN2CC[C@H]1C[C@H]2c1[nH]c2ccccc2c1CCO	-1.5%	3.0%
C=C1C[C@@]23C[C@@]1(O)CC[C@@H]2[C@]12C=C[C@@H](O)[C@](C)(C(=O)O1)[C@@H]2[C@@H]3C(=O)O	1.5%	-6.0%

5 entries already listed, sorted by number of heavy atoms, smallest number first:
SMILES	Cruzain Triton	Cruzain noTriton
O=C(CCl)c1ccc(Cl)cc1Cl	0.4%	2.9%
CCCCCCCCCCCCCCC1CO1 (stereo not drawn)	4.2%	11.3%
CCC/C=C(\CCC)C(NS(C)(=O)=O)c1ccccc1 (stereo not drawn)	-3.4%	-0.6%
C=C[C@H]1CN2CC[C@H]1C[C@H]2c1[nH]c2ccccc2c1CCO	-1.5%	3.0%
C=C1CCC2C(C)(CO)C(O)CCC2(C)C1C/C=C1\C(=O)OCC1O (stereo not drawn)	0.1%	-2.1%

Bioassay records deposited in PubChem BioAssay by National Center for Advancing Translational Sciences (NCATS).
